MARV entry inh: qHTS for Inhibitors of binding or entry into cells for Marburg Virus; Marburg virus pseudotype entry/binding inhibition, cell-based; control for the full effect not named in the record; many of its hits are not listed in these tables; Potency, µM (top dose mostly 49.2 µM), without a hit: top-dose activity change, negative = inhibition, usual class: inhibitors; 18,000 tested, 6.5% active; AID 720532, 2013; active means well fitted inhibition curve with a large enough effect; inconclusive means small, poorly fitted or top-dose-only effect; inactive means no such curve, though single readings can be large or run the other way; tested in HEK293 cells; note: luciferase read-out
LASV entry inh: qHTS for Inhibitors of binding or entry into cells for Lassa Virus. AID 720533, 2013. Lassa virus pseudotyped entry inhibition, cell-based qHTS; control for the full effect not named in the record; many of its hits are not listed in these tables. 18,000 tested, 4.1% active. Potency, µM (series often up to 49.2 µM), inactives show at the highest dose activity change, negative = inhibition, hits mostly inhibitors; active = well fitted inhibition curve with a large enough effect; inconclusive = small, poorly fitted or top-dose-only effect; inactive = no such curve, though single readings can be large or run the other way; tested in HEK293 cells; note: luciferase read-out
* marks the source's active call; other numbers are inactive results; ? = inconclusive; nt = not tested or not shown; & = joins results of further samples; [ ] = dose if it differs, or a comment. % is set by controls: 0 for no effect and ±100 for the full control effect; potency is the fitted concentration of half-maximal effect. An excerpt; the hit share may differ from the screen's.

The line under a structure holds: MARV entry inh, LASV entry inh
- NCCCC[C@H](NC(=O)[C@H](Cc1c[nH]c2ccccc12)NC(=O)[C@H](CC(=O)O)NC(=O)[C@H](Cc1cnc[nH]1)NC(=O)[C@H](CO)NC(=O)[C@H](Cc1c[nH]c2ccccc12)NC(=O)[C@H](Cc1cnc[nH]1)NC(=O)[C@@H]1CCC(=O)N1)C(=O)N1CCC[C@H]1C(=O)NCC(N)=O
    -7%, 5%
- C=CCNc1ccc2c(c1)OC[C@@H](CC(C)C)NS2(=O)=O
    7%, ?
- CN(CC1COCCO1)C(=O)c1cnn(-c2ncc3c(n2)-c2ccccc2CC3)c1C1CC1 (stereo not given)
    52%[activator], 35%[activator]
- C=CCOC(=O)C(C(C)=O)[C@@H](NC(=O)OC)c1cccs1 (stereo not given in full)
    -6%[8.59 µM], -15%[8.59 µM]
- C[C@@]12CC[C@@H]3c4ccc(O)cc4C[C@H](CCCCCCCCCS(=O)CCCC(F)(F)C(F)(F)F)[C@H]3[C@@H]1CC[C@@H]2O (stereo not given in full)
    11%, ?
- CCCCN1CC(COC)Oc2cccc(F)c2S1(=O)=O (stereo not given)
    -4%, 5%
- CCCCC[C@H](O)/C=C/[C@@H]1[C@@H](CC(=O)CCC(=O)O)[C@@H](O)C[C@H]1O
    -4%, -9%
- Cc1onc(-c2c(F)cccc2Cl)c1C(=O)N[C@H]1C(=O)N2[C@H]1SC(C)(C)[C@H]2C(=O)O
    -1%[17.8 µM], 1%[17.8 µM]
- C[C@H](CSC(=O)c1ccccc1)C(=O)N1C[C@@H](Sc2ccccc2)C[C@H]1C(=O)O
    13%, -8%
- CCOC(=O)[C@H](N)/C=C(\C)CP(=O)(O)O
    -23%, -13%

Quoted from the listing:
LASV entry inh with `CCCCN1CC(COC)Oc2cccc(F)c2S1(=O)=O` (stereo not given) = 5%
LASV entry inh with `C[C@H](CSC(=O)c1ccccc1)C(=O)N1C[C@@H](Sc2ccccc2)C[C@H]1C(=O)O` = -8%

The list continues:
The line under a structure holds: MARV entry inh, LASV entry inh
- COC(=O)C1=C2C=C(C)CC(C)N2C(=O)NC1c1ccccc1 (stereo not given)
    30%[8.59 µM], 18%[8.59 µM]
- COCOCCn1cc(CN2CCS(=O)(=O)N(Cc3ccc(-c4cccc(CO)c4)cc3)C(CC(C)C)C2=O)nn1 (stereo not given)
    11%, -15%
- O=c1cc(CN2CCCC2)c2c(ccc3ccccc32)o1
    20%, 21%
- Cn1cc(CNC2CCN(c3cccc(NC(=O)c4cccnc4)c3)CC2)cn1
    -17%, -6%
- COc1ccc(C(=O)NCC2Cc3cccc(-c4cncnc4)c3O2)c(OC)c1OC (stereo not given)
    ?, ?
- CC1(C)CCC(NC(=O)[C@@H](N)CCC(=O)O)CC1
    -10%, -3%
- CCN1C(=S)NC(c2cccs2)C(C(=O)OC)=C1C (stereo not given)
    38%[8.59 µM], -24%[8.59 µM]
- COC(=O)c1c(C)cc(O)cc1O
    13%, -4%
- CC(C)C1C(=O)N(Cc2cn(CCC3OCCCO3)nn2)CCS(=O)(=O)N1Cc1ccc(-c2cccc(N(C)C)c2)cc1 (stereo not given)
    -26%, -5%
- C=CCN1c2ccccc2[C@]23C[C@@H](C(=O)OC)N(C(=O)OCC)C2=NC(C(=O)OC)=C(C(=O)OC)[C@H]13
    0%[8.59 µM], 2%[8.59 µM]

The listing continues.
The line under a structure holds: MARV entry inh, LASV entry inh
- COc1cc(=O)n2c(c1C(=O)NCc1ccco1)CCN(Cc1cccc(C(F)(F)F)c1)CC2
    ?, -11%
- CC(=O)OCCN1C(=O)c2c(C)nc3ccc(S(=O)(=O)N4CCOCC4)cc3c2C1=O
    7%, -4%
- CC(C)C[C@H](NC(=O)[C@@H](N)Cc1ccccc1)C(=O)N[C@@H](Cc1ccccc1)C(=O)N[C@@H](CCC(N)=O)C(=O)N1CCC[C@H]1C(=O)N[C@@H](CCC(N)=O)C(=O)N[C@@H](CCCN=C(N)N)C(=O)N[C@@H](Cc1ccccc1)C(N)=O
    -1%, 3%
- O=C(O)CSCC(=O)NC1CCSC1=O (stereo not given)
    ?, -17%
- CCCCNc1cc(C(=O)O)cc(S(N)(=O)=O)c1Oc1ccccc1
    13%[17.8 µM], -3%[17.8 µM]
- CC(=O)OC[C@H]1O[C@H](CC=NO[C@@H](C)c2cn([C@H](CO)Cc3ccccc3)nn2)C=C[C@@H]1OC(C)=O
    34%[activator][8.59 µM], nt
- CCCCCCCCCCCCCCCC(=O)OCC(NC(=O)C(Cl)Cl)C(O)c1ccc([N+](=O)[O-])cc1 (stereo not given)
    5%, 9%
- Cc1ccc(-c2ccc(CN3C(CC(C)C)C(=O)N(Cc4cn(CCC5OCCCO5)nn4)CCS3(=O)=O)cc2)cc1 (stereo not given)
    ?, -28%
- COc1cccc(C=NNc2ncnc3c2cnn3-c2cccc(OC)c2)c1
    -19%, -45%
- Cc1nccc2c1[nH]c1ccccc12
    ?, -11%

Following part.
The line under a structure holds: MARV entry inh, LASV entry inh
- CC(C)c1nc(C(=O)N2CCOc3ccc(CN4CCN(c5ccccn5)CC4)cc3C2)cs1
    ?, -25%
- NC(=O)c1cc([N+](=O)[O-])cc([N+](=O)[O-])c1
    -2%, 0%
- CCN(CC)S(=O)(=O)c1ccc(OC)c(Nc2ncc(-c3ccccc3)o2)c1
    ?, nt
- CCCCC[C@H](O)/C=C/C=C\C=C\C=C\[C@@H](O)[C@@H](O)CCCC(=O)O
    8%&-14%, -14%&-12%
- NCCNCCNCCNCCN
    -11%, 7%
- O=C(c1cnn(-c2nccc(-c3ccccc3F)n2)c1C1CC1)N1CCCCC1c1cccnc1 (stereo not given)
    6%, -5%
- OC[C@H]1OC([S-])[C@H](O)[C@@H](O)[C@@H]1O.[Au+] (stereo not given in full)
    15%, 2%
- COc1ccc(O)c(C(=O)N2CCC3(CC2)c2ccccc2[C@@H](NC(=O)c2ccccn2)[C@@H]3OC)c1
    -3%, -18%
- CCCC=Cc1ccc(CN2C(C(C)C)C(=O)N(Cc3cn(CC4CCCCC4)nn3)CCS2(=O)=O)cc1 (stereo not given)
    ?, ?
- CC12CCC(C[N+](C)(CCC[N+](C)(C)C)C1)C2(C)C (stereo not given)
    1%, -5%

The list goes on.
The line under a structure holds: MARV entry inh, LASV entry inh
- CC[C@H](C)N(C)C(=O)c1cc2ccccc2c(-c2ccccc2Cl)n1
    11%, -6%
- OCc1ccccc1O[C@@H]1O[C@H](CO)[C@@H](O)[C@H](O)[C@H]1O
    -6%, -20%
- COC(=O)Oc1ccccc1C(=O)O
    12%, -10%
- OC1CCCCC1N1CCC(c2ccccc2)CC1 (stereo not given)
    ?, -1%
- CN(C)c1nc2cc(Cl)ccc2cc1CN(Cc1ccc2c(c1)OCO2)C(=O)c1ccoc1
    -17%, -7%
- CCC1CN(CC(=O)NC(C)c2c(C)nn(C)c2C)Cc2cc(OC)ccc2O1 (stereo not given)
    -15%, 0%
- COc1ccc([C@]23Cc4cc(OC)c(OC)cc4[C@H](O2)C2=C(CC(C)(C)CC2=O)O3)cc1
    20%[8.59 µM], -7%[8.59 µM]
- Cc1ccc(-c2ccnc(-n3ncc(C(=O)N(C)CC4CCCN(C)C4)c3C)n2)o1 (stereo not given)
    4%, -3%
- CC[C@]1(O)CC[C@H]2[C@@H]3CCC4=CCCC[C@@H]4[C@H]3CC[C@@]21C
    -21%, 14µM*
- CCN(CC)Cc1ccc(Nc2ccnc3cc(Cl)ccc23)cc1O
    1.8µM*, ?

Next structures
The line under a structure holds: MARV entry inh, LASV entry inh
- C[N@+]12CCCC[C@@H]1CCC(=C(c1cccs1)c1cccs1)C2
    21%, -14%
- CC(=O)OC1C2CCC3C1(CC(O)[C@@]1(O)[C@@H](CC(O)C1(C)C)[C@]3(C)O)C[C@@]2(C)O (stereo not given in full)
    11%, -12%
- Cc1nc2ccccc2c(=O)n1-c1ccccc1Cl
    8%, -3%
- C[C@H](CCC(=O)O)[C@H]1CC[C@H]2[C@@H]3CC[C@@H]4C[C@H](O)CC[C@]4(C)[C@H]3C[C@H](O)[C@]12C
    6%, -2%
- O=S1(=O)C[C@H](N2CCOCC2)[C@@H](COCc2ccccc2)N1
    10%, 8%
- CCC(=O)c1ccc(OCc2cn(CC(=O)c3ccc(O)cc3)nn2)cc1
    5%, nt
- COc1ccc(C2CC(=O)c3c(O)cc(O[C@H]4OC(COC5OC(C)C(O)C(O)[C@@H]5O)C(O)C(O)C4O)cc3O2)cc1O (stereo not given in full)
    -3%, -1%
- Nc1ccccc1C(=O)C[C@@H](N)C(=O)O
    2%, 5%
- COc1cccc(CN2C(=O)NC(C)(C3CCN(Cc4cccc(O)c4)CC3)C2=O)c1OC (stereo not given)
    ?, -21%
- COc1cccc(-c2ccnc(-n3ncc(C(=O)N(C)CCc4ccccn4)c3C)n2)c1
    -7%, -9%

Later entries:
The line under a structure holds: MARV entry inh, LASV entry inh
- Cn1ccc2c(N3CCCCCC3)cc3c(c21)C1CCC3C1 (stereo not given)
    ?, nt
- C=CCOC(=O)C(C(C)=O)[C@@H](NC(=O)OC)c1cccc(C)c1 (stereo not given in full)
    ?, -18%[8.59 µM]
- CCOC(=O)CNC(=O)O[C@@H]1C(=O)c2cc(Br)ccc2O[C@H]1c1ccc2c(c1)OCO2
    13%, -10%
- C[C@@H]1CC[C@H]2C(=O)N(CC3CCCCC3)C[C@H](O)CN2[C@@H]1c1ccc(Br)cc1
    ?, -24%[8.59 µM]
- C#CCCCON=C1C[C@@H](O)[C@H](O)[C@H]2[C@@H]3C(=O)N(Cc4ccc5c(c4)OCO5)C(=O)[C@@H]3CC[C@@H]12
    -7%[8.59 µM], -10%[8.59 µM]
- CC(C)Cc1nc2cc(NS(=O)(=O)N(C)C)cc(C(=O)N3CCOc4ccccc4C3)c2n1C
    -10%, -3%
- CCCCCCN1C[C@H](O)[C@@H](n2cc(-c3ccc(F)cc3)nn2)C[C@H]1c1ccccc1
    ?, -27%
- ClC1=C(Cl)C(Cl)(C2(Cl)C(Cl)=C(Cl)C(Cl)=C2Cl)C(Cl)=C1Cl
    3.2µM*, ?
- O=S1(=O)N[C@@H](CC2CCCCC2)COc2cc(Br)ccc21
    -23%, -24%
- Cc1ncc2c(c1CNC(=O)c1cncs1)CCN(C(=O)c1cc(F)c(F)cc1F)C2
    -4%, 1%

Further results follow:
The line under a structure holds: MARV entry inh, LASV entry inh
- CN(C)CC/C=C1/c2ccccc2CSc2ccccc21
    ?, ?
- O=C(Nc1n[nH]c2nnc(-c3cccnc3)cc12)C1CC1
    ?, -25%
- COc1cc([C@@H](NC(=O)C(F)(F)F)C2CCCCC=C2c2ccccc2)cc(OC)c1OC (stereo not given in full)
    10%[8.59 µM], ?
- CC(C)C[C@H](NC(=O)[C@H](CC(C)C)NC(=O)[C@H](Cc1ccccc1)NC(=O)[C@@H](N)CO)C(=O)N[C@@H](CCCNC(=N)N)C(=O)N[C@@H](CC(N)=O)C(=O)N1CCC[C@H]1C(=O)N[C@@H](CC(N)=O)C(=O)N[C@@H](CC(=O)O)C(=O)N[C@@H](CCCCN)C(=O)N[C@@H](Cc1ccc(O)cc1)C(=O)N[C@@H](CCC(=O)O)C(=O)N1CCC[C@H]1C(=O)N[C@@H](Cc1ccccc1)C(=O)O
    9%, 0%
- CO[C@@H]1c2cc(F)ccc2/C(=C\CCOC(=O)C/C=C/c2ccccc2)[C@H]1C
    -9%, -4%
- C[C@@H](O)C#C[Si](C)(C)c1ccccc1
    -11%, 3%
- COC1=C[C@@H]2[C@@H]3Cc4ccc(OC)c(O)c4[C@]2(CCN3C)CC1=O
    -14%, -6%
- C=C1CC[C@@H]2O[C@@]2(C)CC[C@H]2[C@H]1CC2(C)C
    -34%, -7%
- c1ccc(-c2nc3n(c2-c2ccc4c(c2)OCO4)CCC3)nc1
    ?, nt
- Nc1sc2c(c1C(=O)c1ccc(Cl)cc1)CCCC2
    -4%, -7%

Among those listed so far, 3 have bromine:
The line under a structure holds: MARV entry inh, LASV entry inh
- CCOC(=O)CNC(=O)O[C@@H]1C(=O)c2cc(Br)ccc2O[C@H]1c1ccc2c(c1)OCO2
    13%, -10%
- C[C@@H]1CC[C@H]2C(=O)N(CC3CCCCC3)C[C@H](O)CN2[C@@H]1c1ccc(Br)cc1
    ?, -24%[8.59 µM]
- O=S1(=O)N[C@@H](CC2CCCCC2)COc2cc(Br)ccc21
    -23%, -24%

Additional results.
The line under a structure holds: MARV entry inh, LASV entry inh
- C=CC[C@](C)(Nc1ccc(OC)cc1)C(=O)OCC
    -19%, -2%
- CS(=O)(=O)c1ccc(-c2cccc3c2OC(CNC(=O)c2cc(C4CC4)[nH]n2)C3)cc1 (stereo not given)
    -13%, ?
- Ic1cncc(OC[C@@H]2CCN2)c1
    -10%, -5%
- C=CCOC[C@@H]1CN2[C@H](c3ccc(Br)cc3)[C@@H](C)CC[C@H]2C(=O)O1
    -26%, -8%
- CCCN(CCC)C(=O)C(CCC(=O)OCCCN1CCN(CCOC(=O)Cc2c(C)n(C(=O)c3ccc(Cl)cc3)c3ccc(OC)cc23)CC1)NC(=O)c1ccccc1 (stereo not given)
    14µM*, 22µM*
- COc1ccc(-n2nc(C(F)(F)F)cc2-c2ccc(Cl)cc2)cc1
    -14%, -4%
- COC(=O)C1=C(C)N(Cc2ccccc2)C(=NCC2CC2)NC1c1cccc(C(F)(F)F)c1 (stereo not given)
    11%[8.59 µM], -21%[8.59 µM]
- CC(=O)OCC(CO)OC(C)=O (stereo not given) (tested in a mixture with another compound)
    8%, 0%
- CCC=CCCC(OC(=O)c1ccc(Br)cc1)C1=CCCCC1=O (stereo not given)
    62%[activator][8.59 µM], 7%[8.59 µM]
- CCCCCC(=O)N1C[C@@H](O)[C@H](n2cc(C3CC3)nn2)C[C@H]1c1ccccc1
    21%, 15%
